# Screens as filed in PubChem.
# RE007 growth inh: less growth of the S. pombe RE007 Vpr strain; S. pombe RE007 Vpr strain, BacTiter-Glo ATP luminescence, 24 h; control for the full effect not named in the record; 360,000 compounds, 0.21% hits; Potency, µM (series often up to 92.2 µM), for the others: at the highest dose activity change, negative = less growth; active = well fitted falling curve with a large enough effect; inconclusive = small, poorly fitted or top-dose-only effect; inactive = no such curve, though single readings can be large or run the other way;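 note: % is set by controls: 0 for no effect and ±100 for the full control effect; nearly all actives have a fitted effect of over 50% in size; the assay follows cell death caused by Vpr and the record does not say whether a fall means rescue or toxicity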
#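 Fission yeast strain RE007, carrying one chromosomally integrated HIV-1 vpr copy, was seeded at OD 0.01 in PMG+AL medium with 23 nL pinned compound. After 24 h at 30 °C and 99% humidity, viability was read by BacTiter-Glo luminescence.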
# Cruzain inh noDet: inhibitors of Trypanosoma cruzi cruzain without detergent | P25779 | purified cruzain, Z-FR-AMC fluorescence, no detergent | Potency, µM, inactives show max response, negative = inhibition, hits mostly inhibitors | 200,000 compounds, 2.3% hits;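 note: plate controls were enzyme without inhibitor for no effect and buffer without enzyme for full effect; nearly all actives have a fitted effect of over 40% in size; top concentration of the series not given in the record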
# Target sequence (P25779 123-467 limits assumed): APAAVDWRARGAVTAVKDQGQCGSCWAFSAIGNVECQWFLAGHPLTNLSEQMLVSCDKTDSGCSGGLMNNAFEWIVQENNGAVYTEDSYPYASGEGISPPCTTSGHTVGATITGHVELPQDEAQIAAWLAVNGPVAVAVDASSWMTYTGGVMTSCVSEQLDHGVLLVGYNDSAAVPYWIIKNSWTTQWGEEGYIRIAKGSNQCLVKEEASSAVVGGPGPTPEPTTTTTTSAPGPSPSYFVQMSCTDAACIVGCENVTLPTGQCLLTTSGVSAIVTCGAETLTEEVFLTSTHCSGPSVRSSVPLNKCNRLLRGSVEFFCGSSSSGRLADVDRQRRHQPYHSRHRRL
#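 Purified cruzain at 1.5 nM, pre-incubated 15 min with compound at room temperature in 100 mM sodium acetate pH 5.5, 5 mM DTT, 0.00005% Triton X-100. Reaction started with 2 uM Z-FR-AMC; AMC fluorescence increase over 60 s gives rate.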
# SARS PLP yeast: SARS-CoV PLP inhibition in yeast | 330,000 compounds, 0.19% hits | AID 485353 | Potency, µM (highest dose often 32.9 µM), without a hit: top-dose activity, positive = growth rescue | S. cerevisiae expressing SARS-CoV PLpro, growth rescue; control for the full effect not named in the record; active means well fitted rising curve with a large enough effect; inconclusive means small, poorly fitted or top-dose-only effect; inactive means no such curve, though single readings can be large or run the other way; note: 0% is about no effect; nearly all actives have a fitted effect of over 55% in size; growth read by luminescence after 48 h
# NS1 function inh: blocks influenza NS1 protein function | 270,000 compounds, 0.4% hits | Potency, µM (highest dose often 46.1 µM), without a hit: at the top dose activity, positive = more growth | S. cerevisiae slowed by influenza A NS1, growth recovery by OD600; active means well fitted rising curve with a large enough effect; inconclusive means small, poorly fitted or top-dose-only effect; inactive means no such curve, though single readings can be large or run the other way; note: nearly all actives have a fitted effect of over 50% in size
#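 In this qHTS, NS1 from influenza A is expressed in budding yeast, where it slows growth. Cells are switched from glucose to 2% galactose medium (pH 6.0, -URA), treated with compound, and growth recovery is read at OD600.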
# 2A StopGo: FMDV 2A StopGo reporter, luciferase signal. 410,000 compounds, 1.2% hits. human cells with a luciferase reporter of 2A StopGo recoding; control for the full effect not named in the record. Potency, µM (doses to about 57.9 µM), for inactives: at the highest dose signal change, negative = less light; active = well fitted falling curve with a large enough effect; inconclusive = small, poorly fitted or top-dose-only effect; inactive = no such curve, though single readings can be large or run the other way; tested in HEK293T cells; note: % is set by controls: 0 for no effect and ±100 for the full control effect; nearly all actives have a fitted effect of over 45% in size; luciferase light after 4 h
# MARV entry inh: blocks Marburg virus binding to or entry into cells | Marburg virus pseudotyped entry inhibition, cell reporter; control for the full effect not named in the record; about a third of the inactives were read at about 46 µM | Potency, µM (highest dose often 37.8 µM), for inactives: top-dose activity change, negative = inhibition, actives largely listed as inhibitors | 300,000 compounds, 1.8% hits; active = well fitted inhibition curve with a large enough effect; inconclusive = small, poorly fitted or top-dose-only effect, or effect the other way; inactive = flat fitted curve, though single readings scatter; tested in HEK293 cells; about a fifth of its hits are not listed in these tables; note: % is set by controls: 0 for no effect and ±100 for the full control effect; luciferase read-out
# LASV entry inh: Lassa virus entry inhibition. Lassa virus pseudotype entry inhibition, cell reporter; control for the full effect not named in the record. Potency, µM (series often up to 37.9 µM), for the others: at the top dose activity change, negative = inhibition, usual class: inhibitors. 300,000 compounds, 1.2% hits. AID 540256; active means well fitted inhibition curve with a large enough effect; inconclusive means small, poorly fitted or top-dose-only effect, or effect the other way; inactive means flat fitted curve, though single readings scatter; tested in HEK293 cells; note: % is set by controls: 0 for no effect and ±100 for the full control effect; nearly all actives have a fitted effect of over 50% in size; luciferase read-out
# Cruzain Triton: inhibitors of Trypanosoma cruzi cruzain with detergent; P25779; purified cruzain, Z-FR-AMC fluorescence, 0.01% Triton; Potency, µM, for inactives: max response, negative = inhibition, actives largely listed as inhibitors; 200,000 compounds, 0.43% hits; AID 1478;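 note: plate controls were neutral wells for no effect and buffer without enzyme for full effect; nearly all actives have a fitted effect of over 40% in size; top concentration of the series not given in the record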
#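 Detergent-containing arm of a paired screen for aggregation-based inhibition: 0.01% Triton X-100 present. Cruzain at 1.5 nM cleaved 2 uM Z-FR-AMC at pH 5.5 with 5 mM DTT; AMC fluorescence gain over 60 s measured activity.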
# Active calls of the source: *; ? = inconclusive; nt = no result given; & = joins results of further samples; ! = repeats disagree; [ ] = another dose, or the depositor's remark. Unless noted, calls come from the whole dose curve; as a rule, active = well fitted curve in the direction sought with a large enough effect; inconclusive = small, poorly fitted or top-dose-only effect, or another doubt; inactive = no such curve, though single readings can be large; an effect the other way counts as inactive or inconclusive. Potency is the fitted concentration of half-maximal effect. The order is random, and some 4.6% of all compounds hit somewhere here.
SMILES,RE007 growth inh,Cruzain inh noDet,SARS PLP yeast,NS1 function inh,2A StopGo,MARV entry inh,LASV entry inh,Cruzain Triton
COc1ccc(C2CC(=O)C3=C(C2)NC(C)=C(C(=O)Nc2ccccc2C)C3c2coc3ccc(C)cc3c2=O)cc1OC (stereo not given),10%,?,-20%,-8%,-23%,?,-19%,-5.1%
Cc1cc(C)n(C(=O)c2ccc(C)o2)n1,-24%,3%,-6%,5%,21%,13%,3%,3.7%
O=C(CSc1nnc(-c2ccccc2)o1)NC1CCCCC1,-13%,12%,?,-5%,-8%,-1%,-6%,1.1%
CC1(C)CC(=O)c2c(oc3c(Cl)cc(NS(=O)(=O)c4ccc(Cl)cc4)cc23)C1,nt,-3%,nt,nt,11%,13%[46.1 µM],0%[46.1 µM],-1.4%
Cc1c(C(=O)N(Cc2ccco2)Cc2ccccc2Cl)oc2ccc(F)cc12,nt,?,nt,nt,-23%,?,-16%[46.1 µM],-15%
CCCCOc1ccc(C(C)NC(=O)CCS(=O)(=O)Cc2ccc(C)cc2)cc1 (stereo not given),13%,7%,11%,1%,-25%,?,-25%,-0.9%
Cc1ccc(Cl)cc1N1CCN(C(=O)Cc2ccc(-n3c(=O)[nH]c4ccsc4c3=O)cc2)CC1,3%,?,7%,6%,?,?,3%,-5.7%
CC(=O)c1cccc(NC(=O)CSc2nnc3ccc(-c4ccc(Cl)cc4)nn23)c1,nt,11%,nt,nt,-5%,nt,-2%[46.1 µM],1.5%
COc1cc(CNC(=O)CCCC/C=C/C(C)C)ccc1O,5%[18.4 µM],7%&-1%&4%&9%,nt,nt,45µM*!,nt,nt,-0.5%&-0.3%&0.3%&-0.4%
CC(NC(=O)Nc1ccccc1O)(C(F)(F)F)C(F)(F)F,-17%,-7%,-33%,-108%,-1%,-3%,16%,4.4%
CCOC(=O)/C(=C/c1ccc(OC(=O)c2ccncc2)cc1)C(C)=O,-17%,nt,-11%,-1%,?,-5%[46.1 µM],-2%,nt
CC(=O)C1CCC2C(CCC3=CC(=O)CCC32)C1 (stereo not given),-22%,nt,nt,nt,-6%,?,11%[46.1 µM],nt
Cc1[nH]n(-c2ccc([N+](=O)[O-])cc2)c(=O)c1C=NCCN1CCN(C(=O)c2ccccc2)CC1,?,?,-9%[6.58 µM],-1%,1%,?,-7%,-7.5%
CC(NC(=O)COC(=O)Cc1ccsc1)C1CC2CCC1C2 (stereo not given),1%,0%,-4%,-53%,-10%,12%,3%,2.0%
COc1cc(C(=O)Oc2ccc(Br)cc2C(=S)N2CCOCC2)cc(OC)c1OC,-19%,nt,-2%,-7%,-7%,11%[46.1 µM],-2%,nt
Cc1[nH]c(=O)c(C#N)c2c1COC(C)(C)C2,3%,nt,-1%,-3%,-7%,2%[46.1 µM],1%,nt
CCOC(=O)C1CCCN(C(=O)c2ccc(CS(=O)(=O)c3ccc(Br)cc3)o2)C1 (stereo not given),15%,18%,4%,-4%,-15%,nt,nt,-6.1%
Cn1c(=O)n(C)c2cc(S(=O)(=O)N3CCN(c4ccccc4)CC3)ccc21,1%,nt,0%,-1%,11%,nt,nt,nt
CCCC(=O)N(Cc1cc2cccc(C)c2[nH]c1=O)c1ccccc1OC,-5%,0%,-4%,-3%,nt,-18%,-6%,2.9%
Cc1ccc(C)c(OCCC(=O)OCC(=O)c2c(N)n(C)c(=O)n(C)c2=O)c1,8%,nt,0%,nt,-7%,-3%[46.1 µM],9%,nt
CC(C)C(=O)Nc1ccc(C(=O)Nc2ccc(Br)cc2F)cc1,6%,nt,-5%,nt,16%,?,-2%[46.1 µM],nt
NC(=O)N=Nc1c2[nH]c3ccccc3nc-2c2ccccc12,-2%,nt,2%,-2%,?,?,?,nt
CCCCNC(=O)CCSc1ccc(C)cc1,16%,7%,3%,0%,-6%,-7%,16%,0.9%
COc1ccc(-n2nc(C(=O)NCC(=O)N3CCCCCC3)c3ccccc3c2=O)c(OC)c1,9%,nt,-1%,0%,58%[activator],?,-6%,nt
CC(Oc1ccccc1F)C(=O)NNC(=O)C1CC(=O)N(c2ccc3c(c2)OCCO3)C1 (stereo not given),-8%,nt,-6%,nt,-8%,-12%[46.1 µM],-2%,nt
CCOC(=O)c1nnn(-c2nonc2-c2ccccc2)c1C,-11%,2%,3%,-14%,-20%,8%,-14%,0.3%
COC(=O)c1ccc(COC(=O)c2cnc(Cl)c(Cl)c2)cc1,26%,nt,1%,-1%,14%,?,?,nt
Cc1ccc(S(=O)(=O)N2CCN(C(=O)c3cccc(-n4cccc4)c3)CC2)cc1,6%,nt,-2%,nt,-10%,-2%,-5%,nt
COc1ccc(/C=N/NC(=O)CCn2cnc(-c3ccccc3)c2-c2ccccc2)cc1OC,-15%,21%,16%,-27%,?,?,?,-4.9%
CC(C)c1ccccc1OCC(=O)N1CCCN(C)CC1,8%,nt,3%,3%,-3%,nt,nt,nt
Oc1cccc(C(=S)N2CCCCC2)c1,-3%,nt,1%,-4%,-10%,5%[46.1 µM],10%,nt
COc1ccc(C(=O)Cn2nnc(-c3ccc(N4CCOCC4)cc3)n2)cc1OC,1%,?,-8%,-14%,-14%,5%,2%,-2.5%
COc1cc(SC)ccc1C(=O)NC1CCCCC1,-15%,6%,17%,-43%,64%[activator],14%,28%,-1.7%
O=C(CCCn1nnc2ccccc2c1=O)N[C@H](C(=O)O)c1ccccc1,4%,nt,1%,3%,-9%,nt,nt,nt
Cc1ccc(C(=O)N2CC(=O)Nc3ccc(F)cc3C2c2ccc(F)cc2)cc1[N+](=O)[O-] (stereo not given),-5%,16%,4%,-5%,0%,?,?,-5.9%
COC(=O)c1ccc(NC(=O)CN2C(=O)C3C4C=CC(C4)C3C2=O)cc1 (stereo not given),1%,1%,13%,6%,23%,?,6%,0.1%
COc1cc(Br)cc(CNc2ccc(F)c([N+](=O)[O-])c2)c1O,-3%,nt,-5%,-10%,-25%,?,?,nt
O=C(CCC1N=C2c3ccccc3N=C(SCC(=O)NCc3ccco3)N2C1=O)NCc1ccco1 (stereo not given),2%,nt,0%,nt,12%,12%,3%,nt
COc1ccc(CNC(=O)Cc2cccs2)cc1OC,2%,nt,1%,2%,16%,15%,9%,nt
CCOc1ccc(/C=N/OCC(=O)NCc2ccco2)cc1,14%,nt,2%,nt,-4%,?,?,nt
CC(=O)Nc1cccc(NC(=O)Cc2cccs2)c1,4%,nt,-3%,3%,5%,nt,nt,nt
CC(C)(C)CC(C)(C)Nc1c(-c2ccc(O)cc2)nc2cnccn12,4%,nt,nt,nt,?,-24%,?,nt
Cc1cc(C)n2c(Br)c(CSc3nc4ccccc4o3)nc2n1,-21%,6%,-11%,-25%,47%[activator],20%,-4%,-3.8%
Cc1cccc2sc(N(Cc3cccnc3)C(=O)C3COc4ccccc4O3)nc12 (stereo not given),nt,-8%,nt,nt,-9%,nt,14%[46.1 µM],0.4%
COc1cc(NC(=O)CSc2ccc(-c3ccco3)nn2)cc(OC)c1,-7%,nt,-3%,11%,?,nt,nt,nt
Cc1ccc(C(=O)Nc2nc3n(n2)C(c2ccc(F)cc2)C=C(c2ccccc2)N3)cc1 (stereo not given),nt,-1%,nt,nt,-22%,-2%[46.1 µM],2%[46.1 µM],-1.2%
N#CC1=C(N)OC2=C(CCC/C2=C/c2ccoc2)C1c1ccoc1 (stereo not given),nt,23%,-5%,-33%,nt,nt,nt,-10.0%
CCn1c(C)nc2cc(S(=O)(=O)C(F)(F)F)ccc21,-4%,1%,-18%,3%,-17%,6%,12%,-1.6%
Cc1ccc(-n2ncc(C(=O)NCCc3ccccc3)c2C2CCN(C(=O)OC(C)(C)C)CC2)c(C)c1,nt,4%,nt,nt,-1%,nt,?,-11%
Cc1ccc(NC(=O)Cn2nnc(C(=O)NCc3ccc4c(c3)OCO4)c2N)cc1,-13%,nt,26%,-6%,-24%,17%[46.1 µM],3%[46.1 µM],nt
Cc1cc(C)nc(SCC(=O)Nc2ncc(C(F)(F)F)cc2Cl)n1,5%,7%,-12%,-3%,-19%,4%,?,-0.3%
CCOC(=O)Cc1csc(NS(=O)(=O)c2ccc(Cl)cc2)n1,-2%,-5%,-1%,10%,0%,-2%,5%,-0.6%
Cc1ccnc(NC(c2cccnc2)c2ccc3cccnc3c2O)c1 (stereo not given),-13%,nt,-3%,0%,-13%,8.9µM*,?,nt
Cc1cc(NC(=O)c2ccccc2Cl)n(C(C)(C)C)n1,9%,nt,0%,3%,-1%,-1%,8%,nt
COC(=O)CSc1nc(SCc2ccc(C)cc2)nc2c1CCCC2,-9%,4%,-34%,-30%,-16%,-1%,-1%,-0.5%
COc1ccc(OC)c(C(=O)COC(=O)COc2ccccc2F)c1,5%,nt,-1%,nt,-7%,-4%,7%,nt
CCC(C)NC(=O)CSc1nc2ccc(N3CCOCC3)cc2c(=O)n1CCc1ccccc1 (stereo not given),nt,-4%,1%,15%,nt,5%,nt,1.5%
Cc1ccc2[nH]c(C(=O)N3CCCCC3)cc2c1,-11%,nt,-1%,-11%,100%[activator],11%,8%,nt
CC(=O)C1(C)N(O)C(C)(C)C(c2ccco2)=[N+]1[O-] (stereo not given),-5%,5%,5%,18%,12%,-1%,9%,7.8%
CC(=O)c1ccc(NC(=O)CCc2nnc3ccc(N4CCC5(CC4)OCCO5)nn23)cc1,5%,nt,1%,2%,8%,?,14%[46.1 µM],nt
COc1ccc(CNC(=O)Nc2cccc(C(F)(F)F)c2)cc1OC,16%,10%,3%,-17%,0%,?,?,-12%
COc1cccc(-c2nnc3n(Cc4ccc(F)cc4)c(=O)c4ccccc4n23)c1,nt,-1%,nt,nt,-29%,1%[46.1 µM],26%[46.1 µM],-2.8%
O=C1NC(=S)/C(=C\c2ccc(-c3ccccc3Cl)o2)S1,12%,-24%,-49%,-13%,0%,-16%,-21%,-25%
